Insulin prom inh: TRM-6 insulin promoter activity inhibition. TRM-6 cells (human fetal islet line), insulin promoter-eGFP reporter, imaging; reporter expression induced with tamoxifen. inhibition, % at 2 µM. 130,000 compounds, 0.9% hits. AID 1273;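 active means inhibition above the mean plus 3 SD, with well images judged a real hit on visual review, cut at about 60% in these data, passing the limit was not always enough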
RGS16-Gao: RGS16-Galphao interaction regulator (human); O15492+P09471; bead-based flow cytometry RGS16-Galphao binding, fluorescence; actives lie on both sides; binding response (% of control), % at 10 µM; 220,000 compounds, 0.38% hits;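 active means below 25% or above 175%, edge rows of some plates excepted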;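 further: Galphao activated by GDP with aluminum fluoride before binding; 100% = wells without compound and 0% = beads without RGS; some results beyond the cut were filed as inactive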
Target sequence (O15492 whole entry, looked up): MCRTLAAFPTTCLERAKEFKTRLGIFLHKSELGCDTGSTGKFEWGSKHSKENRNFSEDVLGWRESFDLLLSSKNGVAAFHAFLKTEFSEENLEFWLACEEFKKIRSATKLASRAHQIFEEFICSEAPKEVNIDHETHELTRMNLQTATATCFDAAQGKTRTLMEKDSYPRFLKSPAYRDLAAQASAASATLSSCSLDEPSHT
Target sequence (P09471 whole entry, looked up): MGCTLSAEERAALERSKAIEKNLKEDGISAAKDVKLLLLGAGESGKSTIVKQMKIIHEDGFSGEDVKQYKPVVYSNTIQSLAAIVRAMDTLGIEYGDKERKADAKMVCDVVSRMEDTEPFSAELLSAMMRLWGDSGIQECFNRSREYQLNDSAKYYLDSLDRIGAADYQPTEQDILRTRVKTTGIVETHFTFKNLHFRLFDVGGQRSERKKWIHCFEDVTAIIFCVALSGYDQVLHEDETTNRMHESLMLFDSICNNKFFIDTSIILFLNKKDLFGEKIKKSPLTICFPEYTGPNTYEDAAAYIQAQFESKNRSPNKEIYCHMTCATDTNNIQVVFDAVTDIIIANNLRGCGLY
PKD1 kinase inh: blocks activity of human protein kinase D1 | AID 797 | inhibition, %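 (about 10 µM by stock and volumes)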 | Q15139 | PKD1 kinase fluorescence polarization assay | 200,000 compounds, 0.056% hits;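 active means inhibition of 50% or more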;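 further: controls were vehicle for no effect and a reference inhibitor for full effect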
HSV augment: HSV replication enhancement; maximum fold increase; 220,000 compounds, 0.005% hits; HSV replication augmentation in cells, fold increase;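 active means peak rise of 1.5-fold or more in the series; tested in PC3 cells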;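 further: first round at 10 µM; read as green reporter fluorescence; hits show the peak of a series up to 25 µM; 1 = signal of infected wells without compound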
GALR2 agonist: agonists of human galanin receptor 2 (GALR2). O43603. GALR2-expressing cells, agonist activation read-out. activation, %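 (tested at 5 µM)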. 140,000 compounds, 0.48% hits. AID 803;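 active means above mean plus 3 SD of all compounds, about 5% in these data, not always enough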;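 further: 0% = vehicle buffer wells and 100% = reference agonist at full effect; tested in CHO reporter cells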
Target sequence (O43603 whole entry, looked up): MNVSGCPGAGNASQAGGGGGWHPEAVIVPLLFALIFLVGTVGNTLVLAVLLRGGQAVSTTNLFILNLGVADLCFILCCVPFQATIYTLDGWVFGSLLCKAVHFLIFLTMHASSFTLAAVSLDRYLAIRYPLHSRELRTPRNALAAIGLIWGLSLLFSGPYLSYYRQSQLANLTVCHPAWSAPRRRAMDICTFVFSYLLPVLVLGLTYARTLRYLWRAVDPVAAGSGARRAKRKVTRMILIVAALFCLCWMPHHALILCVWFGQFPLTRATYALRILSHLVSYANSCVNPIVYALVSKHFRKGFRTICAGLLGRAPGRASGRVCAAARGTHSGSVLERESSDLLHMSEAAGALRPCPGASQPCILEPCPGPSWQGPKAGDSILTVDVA
Insulin prom inh cell count: recorded beside Insulin prom inh, whose call it bears; normalized cell count, %; measured here: cell count, toxicity; reference of the scale not given here;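 cells exposed to compound for 48 h; stained nuclei by imaging scaled within each plate; lower means fewer cells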
HSV augment primary fold: also measured in HSV augment; calls as there; fold increase; compound at 10 µM; measured here: primary screen fold increase 10 uM; tested in PC3 cells;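 GFP signal in the first replicate; 1 = infected wells without compound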
* = called active by the depositor; i = inactive; . = not tested or not shown.

SMILES | Insulin prom inh | Insulin prom inh cell count | RGS16-Gao | PKD1 kinase inh | HSV augment | HSV augment primary fold | GALR2 agonist
N#Cc1cc2c(nc1SCc1ccccc1)CCCCC2 | -13 | 143 | 102 | -1 | i | 0.92 | -0.4
Cc1cccc(Oc2nccc(C(F)(F)F)c2C(=O)Nc2ccc(F)cc2F)c1 | . | . | 94 | . | i | 0.91 | .
COCCNC(=O)Cc1cn(C)c2ccccc12 | 14 | 102 | 109 | -10 | i | 0.91 | -3.0
C=CCNC(=O)C1(c2ccccc2)CC1(Cl)Cl (stereo unspecified) | 15 | 92 | 103 | -11 | i | 1 | -1.2
CCOc1ccc(NC(=O)Nc2cccnc2)cc1 | . | . | 98 | 3 | i | 0.95 | .
CC(=O)c1ccc(NCC(=O)N2CCN(c3ccccc3)CC2)cc1 | 0 | 142 | 95 | 0 | . | . | -2.7
O=C(CN1C(=O)CCS(=O)(=O)c2ccccc21)Nc1cccc(F)c1 | 34 | 91 | 99 | 3 | i | 1 | -1.4
Cc1c(NC(=O)c2ccc(=O)oc2)c(=O)n(-c2ccccc2)n1C | -27 | 65 | 97 | -18 | i | 1 | -2.6
O=C(CCC(=O)Nc1ccccc1)N/N=C/C=C/c1ccccc1 | . | . | 101 | -11 | i | 0.93 | -1.6
Cc1cc(Nc2ccccc2C(=O)O)n(-c2cccc(Cl)c2)n1 | . | . | 93 | . | i | 0.89 | .
Cc1ccc(C(=O)NCCCN2CCOCC2)cc1 | -19 | 94 | . | -6 | i | 1 | -2.2
COc1ccc(-c2ccc(CCC(=O)O)n2-c2ccccc2O)cc1 | . | . | 105 | . | i | 1.1 | .
CCN(CC)C(=O)c1cnn(-c2ccccc2)c1NC(=O)c1cccs1 | -26 | 92 | 97 | -5 | i | 0.98 | -2.8
CC1(CC(=O)N/N=C/c2cc(Br)c(O)cc2O)OCCO1 | . | . | 93 | 7 | i | 0.92 | -2.8
COc1cc2[nH]c(=O)n(CCCCCC(=O)NCCCN3CCC(C)CC3)c(=O)c2cc1OC | -42 | 119 | 69 | -4 | i | 0.82 | -0.2
O=C(Nc1cccc(NC(=S)NC(=O)c2cccs2)c1)c1ccccc1 | 22 | 76 | 103 | 0 | i | 0.79 | -0.6
COC(=O)c1cc(S(=O)(=O)n2nc(C)c(Br)c2C)c(Cl)cc1Cl | 29 | 102 | 80 | -7 | i | 0.88 | -0.2
C=CCN(Cc1cc(OC)ccc1OC)S(=O)(=O)N(C)C | -24 | 70 | 108 | -1 | i | 0.91 | -0.7
Cc1ccccc1Nc1nnc(SCC(=O)NC(=O)Nc2ccc3c(c2)OCCO3)s1 | -11 | 117 | 105 | -18 | i | 0.76 | 0.0
COc1ccc(C2CC(c3cccs3)=NN2C(=O)CN2CCCCC2)cc1 (stereo unspecified) | -41 | 108 | 99 | -5 | i | 0.93 | .
COc1ccc(/C(N)=N/OC(=O)N2CCOCC2)cc1 | . | . | 108 | -6 | i | 0.94 | .
Cc1ccc(-n2c(-c3ccccc3)cc(=O)nc2C)cc1 | 6 | 134 | 107 | -8 | i | 0.98 | -2.2
COc1ccc(-n2c(=O)[nH]cc(C(=O)Nc3ccc(NC(C)=O)cc3)c2=O)cc1 | 45 | 61 | . | -5 | i | 0.81 | -0.1
CN(C)/C=N/c1c(C#N)nnn1Cc1ccccc1 | -36 | 122 | 104 | 1 | i | 0.96 | 2.0
CC(=O)Cc1nsc(NC(=O)c2cc(-c3ccc(Cl)c(Cl)c3)oc2C)n1 | . | . | 106 | -8 | i | 0.8 | -1.3
Cc1ccc(S(=O)(=O)N2CCOCC2)cc1NC(=O)CSc1nnc2cc(C)c3ccccc3n12 | -16 | 100 | 102 | -3 | i | 1 | 0.1
Cc1ccccc1N(CC(=O)NC1CCCC1)C(=O)CS(=O)CC(=O)Nc1ccc2c(c1)OCO2 (stereo unspecified) | 27 | 112 | 101 | -4 | i | 0.92 | -1.0
O=C(CCN1CCN(C(c2ccccc2)c2ccccc2)CC1)N/N=C/c1ccc(O)cc1O | . | . | 100 | 4 | i | 0.86 | -1.9
CCCn1c(SCC(=O)N2CCN(c3ccc(OC)cc3)CC2)nc2c1c(=O)n(C)c(=O)n2C | 18 | 96 | 107 | -8 | i | 1.1 | 0.3
CC(=O)c1ccc(OC(=O)C2c3ccccc3Oc3ccccc32)cc1 | 21 | 77 | 106 | -13 | i | 0.91 | -2.0
CCCC(c1nnnn1Cc1ccc(OC)cc1)N1CCN(c2ccccc2OC)CC1 (stereo unspecified) | -8 | 75 | 102 | 6 | i | 0.91 | -1.5
O=C(O)CCNC(=O)c1ccc(Br)o1 | 43 | 100 | 103 | -2 | i | 0.94 | -1.7
CCN(Cc1ccncc1)C(=O)CCc1nnc(CCc2ccc(OC)cc2)o1 | . | . | 102 | -5 | i | 0.98 | .
COc1ccc(CC(=O)N2CCCC(CNC(=O)c3ccccc3Cl)C2)cc1 (stereo unspecified) | . | . | 102 | -2 | i | 0.96 | .
COc1ccc2[nH]c(=O)c(CN(C)C(=O)c3ccncc3)cc2c1 | . | . | 98 | -15 | i | 0.86 | -1.2
Cc1nn(C)c(Cl)c1C(N)=O | 0 | 82 | 98 | 0 | i | 1.2 | .
C#CCNC(=O)C1=C[C@@H](C2CCCCC2)C[C@@H](OCc2ccc(CO)cc2)O1 | . | . | 99 | 3 | i | 0.92 | .
CC(C)CNC(=O)CC1Nc2ccccc2NC1=O (stereo unspecified) | . | . | 101 | 10 | i | 1 | .
CCC(C(=O)O)n1nc(-c2ccccc2)c2cc(Cl)ccc21 (stereo unspecified) | 11 | 61 | 106 | -7 | i | 0.92 | .
COc1ccccc1NC(=O)c1csc(-n2nc(C)cc2C(F)(F)F)n1 | -82 | 105 | 90 | -7 | i | 1 | -0.8
O=S(Cc1cc(Sc2ccccc2)nc(-c2ccccc2)n1)c1ccccc1 (stereo unspecified) | . | . | 105 | -5 | i | 0.92 | -1.2
CCn1c(SCc2nc(-c3ccc(OC)c(OC)c3)no2)nnc1-c1cccs1 | . | . | 101 | -10 | i | 0.81 | -0.1
CC1SC(c2ccc(F)cc2)NC1=O (stereo unspecified) | . | . | 107 | 3 | i | 1.1 | .
COc1ccccc1NC(=O)C(=O)N/N=C/c1ccc([N+](=O)[O-])s1 | . | . | 99 | -5 | i | 0.86 | .
Cc1nnsc1C(=O)Nc1cccc(Cl)c1Cl | 17 | 186 | 120 | 1 | i | 0.91 | 1.6
COc1ccccc1CN1C(=O)CCC1(C)C(=O)NCc1cccnc1 (stereo unspecified) | . | . | 98 | 4 | i | 0.99 | -2.3
CN1CCN(C(=O)c2c(O)c3cccc4c3n(c2=O)CC4)CC1 | 0 | 125 | 101 | 12 | i | 0.96 | -0.8
CC(C)(C)N1CC2([N+](=O)[O-])CN(C(C)(C)C)CC([N+](=O)[O-])(C1)C2 | 0 | 165 | 106 | 6 | i | 0.93 | -2.0
O=C(COc1ccc(-n2cnnn2)cc1)NCCc1ccc(F)cc1 | 43 | 122 | 90 | -11 | i | 0.59 | -3.1
Cc1cccc(Cc2nnc(CCC(=O)N(CC3CC3)CC3CCCO3)o2)c1 (stereo unspecified) | 0 | 89 | 103 | 1 | i | 1 | .
Cc1cc(/C=C(\C#N)C(=O)NCc2ccco2)c(C)n1-c1cccnc1 | . | . | 111 | . | i | 0.97 | .
Cc1cccc2c1N(C(=O)c1ccco1)C(C)(C)c1ssc(=S)c1-2 | 10 | 127 | 100 | 13 | i | 0.84 | -0.7
Cn1c(-c2ccccc2)cnc1SCC(=O)N1CCCc2ccccc21 | -26 | 139 | 97 | 1 | i | 0.95 | -0.8
O=C(CN(c1ccccc1)S(=O)(=O)c1ccccc1)N1CCOCC1 | . | . | 105 | 12 | i | 1 | .
Cc1[nH]c2ccccc2c1CCNC(=O)CCC(=O)c1ccccc1 | . | . | 111 | 6 | i | 0.97 | .
Cc1nc2ccc3[nH]snc3c2n1 | . | . | 100 | 21 | i | 0.95 | -0.6
O=C(OCC1CCCN2CCCCC12)c1ccc2c(c1)OCO2 (stereo unspecified) | . | . | 106 | 19 | i | 0.7 | -1.7
O=C(CCn1nc(-c2ccccc2)ccc1=O)NCCCN1CCCCCC1 | 13 | 108 | 103 | 3 | . | . | -2.0
Cc1cccc(C(=O)NC(C(=O)Nc2nc(-c3ccccn3)cs2)C(C)C)c1 (stereo unspecified) | . | . | 99 | -1 | i | 0.98 | .
CC(=O)c1ccc(NC(=S)N2CCCCCC2)cc1 | -5 | 121 | 106 | -6 | i | 0.95 | .

5 entries picked at random from the list so far, as already listed:
SMILES | Insulin prom inh | Insulin prom inh cell count | RGS16-Gao | PKD1 kinase inh | HSV augment | HSV augment primary fold | GALR2 agonist
CC1SC(c2ccc(F)cc2)NC1=O (stereo unspecified) | . | . | 107 | 3 | i | 1.1 | .
CCn1c(SCc2nc(-c3ccc(OC)c(OC)c3)no2)nnc1-c1cccs1 | . | . | 101 | -10 | i | 0.81 | -0.1
Cc1[nH]c2ccccc2c1CCNC(=O)CCC(=O)c1ccccc1 | . | . | 111 | 6 | i | 0.97 | .
COc1ccccc1CN1C(=O)CCC1(C)C(=O)NCc1cccnc1 (stereo unspecified) | . | . | 98 | 4 | i | 0.99 | -2.3
Cc1nc2ccc3[nH]snc3c2n1 | . | . | 100 | 21 | i | 0.95 | -0.6

Following part:
SMILES | Insulin prom inh | Insulin prom inh cell count | RGS16-Gao | PKD1 kinase inh | HSV augment | HSV augment primary fold | GALR2 agonist
CSc1nnc(-c2ccccc2SC)o1 | -38 | 104 | 106 | -5 | i | 1 | .
O=C(O)c1ccc(Nc2nc(-c3cccnc3)nc3ccccc23)cc1 | . | . | 98 | -5 | . | . | .
O=S(=O)(c1ccc(Br)s1)N1CCc2ccccc2C1 | 29 | 127 | 117 | -13 | i | 0.87 | -2.7
Cc1ccc[n+](C(C)C(=O)Nc2ccc(C)c([N+](=O)[O-])c2)c1 (stereo unspecified) | -35 | 98 | 105 | -3 | i | 0.9 | -2.0
Cc1ccc(NC(=O)C(C)S)cc1 (stereo unspecified) | . | . | 102 | . | i | 1 | .
O=[N+]([O-])c1ccc(COc2ncnc3ccccc23)cc1 | -13 | 77 | 108 | 5 | i | 0.97 | .
Cc1ccc2c(c1)N(C(=O)c1ccco1)C(C)(C)c1ssc(=S)c1-2 | -78 | 182 | 108 | -2 | i | 1 | -1.0
CCCCOCCCNC(=O)c1cccs1 | -61 | 153 | 107 | 1 | i | 0.87 | 0.7
COc1ccc(Cl)cc1NC(=O)CN(C)CC(=O)Nc1ccc(Br)cc1 | 35 | 115 | 99 | 7 | i | 1 | .
O=C(O)CSCC(=O)Nc1ccc(S(=O)(=O)N2CCCCC2)cc1 | . | . | 108 | -2 | i | 0.89 | -3.1
CC1=CCC2([N+](=O)[O-])CN(CC(=O)O)CC1([N+](=O)[O-])C2 (stereo unspecified) | 21 | 189 | 104 | -9 | i | 1.1 | 0.3
COc1ccc(CN(C(=O)c2ccc3c(c2)OCCO3)C(C(=O)NC2CCCCC2)c2ccc3ncccc3c2)cc1 (stereo unspecified) | -17 | 84 | 103 | -2 | i | 0.87 | -1.7
CCCS(=O)(=O)n1nc(-c2ccccc2)cc1N | . | . | 121 | 4 | i | 0.94 | -1.9
COc1cc(CCCN2C(=O)C(=O)NC[C@@H]2C(C)O)cc(OC)c1OC (stereo partly specified) | . | . | 95 | . | i | 1.3 | .
CCCNc1nc(OCC(F)(F)F)nc(OCC(F)(F)F)n1 | 64 | 124 | 109 | 0 | i | 1.1 | -2.0
Cc1ccc(-c2csc(NC(=S)NC(=O)c3cccs3)n2)cc1 | -18 | 144 | 109 | -1 | i | 1 | -1.1
CC(C)Cn1c(SC(C)C(=O)Nc2ccc(N3CCOCC3)cc2)nc2ccccc21 (stereo unspecified) | 16 | 103 | 102 | -4 | i | 0.86 | -1.9
CN1CCN(C(=O)CCc2nc3ccccc3c(=O)[nH]2)CC1 | 13 | 58 | 100 | -14 | i | 0.88 | -2.1

A portion from further up, as a working copy:
SMILES | Insulin prom inh | Insulin prom inh cell count | RGS16-Gao | PKD1 kinase inh | HSV augment | HSV augment primary fold | GALR2 agonist
CSc1nnc(-c2ccccc2SC)o1 | -38 | 104 | 106 | -5 | i | 1 | .
O=C(O)c1ccc(Nc2nc(-c3cccnc3)nc3ccccc23)cc1 | . | . | 98 | -5 | . | . | .
O=S(=O)(c1ccc(Br)s1)N1CCc2ccccc2C1 | 29 | 127 | 117 | -13 | i | 0.87 | -2.7
Cc1ccc[n+](C(C)C(=O)Nc2ccc(C)c([N+](=O)[O-])c2)c1 (stereo unspecified) | -35 | 98 | 105 | -3 | i | 0.9 | -2.0

This is a random part of the collection; 1.3% or so of the library scored in one or more.
